From PubChem
Measles inh: inhibitors of measles virus growth in infected cells; AID 745; actives 0.1% (n = 33,000); z-score (concentration not given with the values); infected Vero cells, GFP fluorescence, 64 h; active compounds read low;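 active = z-score under -3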;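 note: score is relative to mean and SD of the compound wells of a plate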
Numbers without * were called inactive.

A first look:
SMILES	Measles inh
COc1cccc(CNC(=O)c2ccc(CS(=O)(=O)Cc3ccc(C)cc3)o2)c1	-0.09
CC1CCN(C(=O)c2c[nH]c3ccc(S(=O)(=O)N(C)c4ccc(F)cc4)cc3c2=O)CC1	-0.54
CCOC(=O)C1=C(C)N(C)C(C)=C(C(=O)OCC)C1c1cccnc1	-0.57
Cc1nn(-c2ccc3ccccc3n2)c2c1C(=O)CC(C)(C)C2	-1.33
Cc1c(Cl)cccc1-n1ncnc1-c1ccc(F)cc1	-0.43
Cc1cc(C)c(S(=O)(=O)NCc2ccc(C(=O)NCCc3ccc(Cl)cc3)cc2)c(C)c1	1.26

The list itself, from the first entry:
SMILES	Measles inh
COc1cccc(CNC(=O)c2ccc(CS(=O)(=O)Cc3ccc(C)cc3)o2)c1	-0.09
CC1CCN(C(=O)c2c[nH]c3ccc(S(=O)(=O)N(C)c4ccc(F)cc4)cc3c2=O)CC1	-0.54
CCOC(=O)C1=C(C)N(C)C(C)=C(C(=O)OCC)C1c1cccnc1	-0.57
Cc1nn(-c2ccc3ccccc3n2)c2c1C(=O)CC(C)(C)C2	-1.33
Cc1c(Cl)cccc1-n1ncnc1-c1ccc(F)cc1	-0.43
Cc1cc(C)c(S(=O)(=O)NCc2ccc(C(=O)NCCc3ccc(Cl)cc3)cc2)c(C)c1	1.26
CC1CCN(c2nc3c(c(=O)n(C)c(=O)n3C)n2Cc2ccccc2)CC1	0.71
COc1cc([N+](=O)[O-])cc(C=Nc2cccc(C(=O)Nc3cccc4ccccc34)c2)c1O	-0.61
N#CCCCSc1nnnn1-c1cccc(Cl)c1	-0.49
O=C1c2ccc([N+](=O)[O-])cc2S(=O)N1Cc1ccccc1 (stereo unspecified)	-1.47
CCC(C)c1ccccc1OCC(O)CN1CCN(c2cc(Cl)ccc2C)CC1 (stereo unspecified)	-0.14
O=C(CCc1ccccc1)N1CCCN(C(=O)CCc2ccccc2)CC1	0.19
O=C(Nc1ccccc1Sc1ccccc1)C1CCCCC1	0.04
Cc1ccc(-c2nnc(Nc3cccc(Br)c3)c3ccccc23)cc1S(=O)(=O)NCC1CCCO1 (stereo unspecified)	-0.19
Cc1nc(-c2ccccc2)sc1C(=O)O	-0.45
CCCCC(=O)Nc1c2c(nn1-c1ccc(OC)cc1)CS(=O)(=O)C2	0.46
Cc1ccc(-c2cc3nc(C)cc(C(F)(F)F)n3n2)cc1	-0.75
COc1ccc(NS(=O)(=O)c2ccc(N=Cc3ccc([N+](=O)[O-])cc3)cc2)nn1	0.37
O=C(O)c1ccc(Cl)c(S(=O)(=O)NCc2ccccc2)c1	-0.06
COc1ccc(N2CC(C(=O)Nc3ccc(NC(C)=O)cc3)CC2=O)cc1 (stereo unspecified)	0.23
O=C1c2cc(N3CCOCC3)c([N+](=O)[O-])cc2C(=O)N1c1ccc2c(c1)OCO2	-1.31
O=C(NCCc1ccccc1)C1Cc2ccccc2CN1S(=O)(=O)c1cccs1 (stereo unspecified)	-0.21
Cc1ccc(-c2nn(CC(=O)Nc3ccccc3C)c(=O)c3ccccc23)cc1	-0.03
Cc1ccc(S(=O)(=O)N(C)c2ccc(C)c([N+](=O)[O-])c2)cc1	-0.25
Cc1ccc(NC(=O)C2C3C=CC4(O3)C2C(=O)N(Cc2cccnc2)C4C(=O)NC2CCCC(C)C2C)cc1C (stereo unspecified)	-0.51
CC1CCCCC1NC(=O)CCNS(=O)(=O)c1ccc(Cl)cc1 (stereo unspecified)	-1.35
COc1ccc(OC)c(CN2CCN(Cc3c[nH]c4ccccc34)CC2)c1	-0.31
CN(C)c1ccc(C=Nc2ccccc2O)cc1	-0.16
O=C1c2ccccc2NC2(C(=O)Nc3ccccc32)N1C1CCCCC1 (stereo unspecified)	-0.85
CCn1c(=NC(=O)c2ccc(S(=O)(=O)N3CC(C)CC(C)C3)cc2)sc2cc(F)ccc21 (stereo unspecified)	-1.32
COc1ccccc1CNC(=O)CCn1c(=O)c2ccccc2n(Cc2c(C)cc(C)cc2C)c1=O	-0.57
O=C(CSc1nc2cc3c(cc2c(=O)n1Cc1ccc2c(c1)OCO2)OCO3)Nc1ccc(F)cc1	-0.99
O=C(c1ccc(Cl)cc1)c1coc2ccccc2c1=O	-1.42
CC(=O)Nc1cc(C(=O)N2CCc3ccccc3C2)ccc1Sc1ccc(C)cc1	-0.88
CC12c3ccccc3C(C)(c3ccccc31)C1C(=O)N(c3cccc([N+](=O)[O-])c3)C(=O)C12 (stereo unspecified)	-0.6
CCc1cc2c(=O)c(-c3nc4ccccc4n3C)c(C(F)(F)F)oc2cc1O	-0.1
COc1ccccc1N1C(=O)CC(Sc2nc(C)cc(C)n2)C1=O (stereo unspecified)	-1.03
O=C(COc1ccccc1P(=O)(O)O)Nc1ccc(Cl)cc1	0.22
C=CCOC(=O)C1=C(C)NC(=O)NC1c1ccc(O)c(OC)c1 (stereo unspecified)	-0.64
COc1ccccc1-c1cc(=O)[nH][nH]1	-0.84
S=c1[nH]c2cc(Cl)ccc2s1	0.1
Cc1ccccc1Nc1c(-c2c[nH]c3ccccc23)nc2ccc(Cl)cn12	0.02
COc1ccc(CCNC(=O)c2ccc[nH]c2=S)cc1OC	1.82
COC(=O)c1ccc(N=C2SC(C(=O)Nc3ccccc3OC)CC(=O)N2C)cc1 (stereo unspecified)	-0.5
COc1ccc(-n2c(SCC(=O)N3CCCC3)nc3c(sc(=S)n3-c3ccccc3)c2=O)cc1OC	-1.29
CCCn1cnc2sc(C(=O)Nc3ccc(Oc4ccc5c(c4)C(=O)N(c4ccc6c(c4)OCO6)C5=O)cc3)c(C)c2c1=O	1.48
COc1ccc(S(=O)(=O)N2CCCN(CC(=O)Nc3ccccc3F)CC2)cc1	1.92
CCCCCCn1c(SCC(=O)c2ccccc2)nc2c1c(=O)[nH]c(=O)n2C	-0.58
O=[N+]([O-])c1ccc(C2OCOCC2O)cc1 (stereo unspecified)	-1.35
CNC(=O)C1CCN(S(=O)(=O)c2ccc(C)cc2)CC1	1.07
CCc1ccc(NC(=O)c2cc(S(=O)(=O)N3CC(C)CC(C)C3)ccc2F)cc1 (stereo unspecified)	-0.19
CCC1=CC(=CN(C)c2ccccc2)C(=O)S1	-1.13
CC1CC(C)(C)NC(=S)N1CCC(=O)N1CCCCCC1 (stereo unspecified)	0.49
C=CCN=C1SC(C)(C)C(=O)N1S(=O)(=O)c1ccc(C)cc1	-0.13
COc1ccc2nc3oc(C(=O)N4CCCC(C)C4)cc3cc2c1 (stereo unspecified)	-0.46
COc1cc(C(=O)N2c3ccccc3NC3=C(C(=O)CC(C)(C)C3)C2c2ccc(Cl)cc2)cc(OC)c1OC (stereo unspecified)	1.06
COc1ccc2cc(C(=O)NC(C)=O)c(=Nc3ccccc3)oc2c1	1.15
CCN1C(=O)c2cccc3c(NC(=O)c4cc([N+](=O)[O-])ccc4Cl)ccc1c23	0.15
O=C(CCC1N=C2c3ccccc3N=C(SCc3ccc([N+](=O)[O-])cc3)N2C1=O)NC1CCCCC1 (stereo unspecified)	-0.35
COc1ccc(OC)c(Nc2nc(-c3ccc(OC)c(OC)c3)cs2)c1	0.08

New compounds follow:
SMILES	Measles inh
COc1ccc(S(=O)(=O)NCc2ccco2)cc1C(=O)O	1.65
Cc1sc2ncn(CC(=O)NCCC3=CCCCC3)c(=O)c2c1S(=O)(=O)N1CCN(C)CC1	-0.56
O=C(CSc1nnc2sc3ccccc3n12)Nc1ccc(Cl)c(C(F)(F)F)c1	0.52
CCC(=O)N1CCc2cc(Br)cc(S(=O)(=O)N3CCCC(C(=O)Nc4ccc(C)c(Cl)c4)C3)c21 (stereo unspecified)	-0.54
COc1ccccc1Nc1nc(C2(C)CC(CC(C)C)C(=O)O2)cs1 (stereo unspecified)	-0.68
Cc1cc(Cl)ccc1N=Cc1c(O)cc(C)c(Cl)c1C	-0.02
Cc1ccc(C2NC(=O)NC(O)(C(F)(F)F)C2C(=O)c2ccc(Cl)cc2)cc1 (stereo unspecified)	-0.78
O=C(OCCN1C(=O)c2cccc3c(N4CCCCC4)ccc(c23)C1=O)c1cccc(Br)c1	1.99
CCC(Sc1ncnc2c1sc1ccccc12)C(=O)N(CC)CC (stereo unspecified)	-2.03
COc1cc2c(cc1OC)C(COc1ccccc1OC)N(C(=O)c1cccc([N+](=O)[O-])c1C)CC2 (stereo unspecified)	-0.06
COc1ccc(S(=O)(=O)c2cc(NS(=O)(=O)c3ccc(Cl)cc3)cc(C(C)C)c2O)cc1	-0.51
O=S(=O)(c1ccc(Cl)cc1)c1nc(-c2cccc(Br)c2)oc1N1CCOCC1	-0.61

Four of the entries above in order of their number in Measles inh, ascending.
Structure	Measles inh
CCC(Sc1ncnc2c1sc1ccccc12)C(=O)N(CC)CC (stereo unspecified)	-2.03
COc1cc2c(cc1OC)C(COc1ccccc1OC)N(C(=O)c1cccc([N+](=O)[O-])c1C)CC2 (stereo unspecified)	-0.06
Cc1cc(Cl)ccc1N=Cc1c(O)cc(C)c(Cl)c1C	-0.02
COc1ccc(S(=O)(=O)NCc2ccco2)cc1C(=O)O	1.65

Going on with the list.
SMILES	Measles inh
CCSCCOC(=O)C1=C(C)NC2=C(C(=O)CCC2)C1c1cc([N+](=O)[O-])ccc1Cl (stereo unspecified)	1.43
O=C(Nc1nc(-c2ccccc2)cs1)C1c2ccccc2Oc2ccccc21	0.37
COc1ccc(N2C(=O)CCC(C(=O)N3CCN(c4cccc(Cl)c4)CC3)C2c2ccc(F)cc2)cc1 (stereo unspecified)	-0.79
COc1cc([N+](=O)[O-])c2[nH]c(C(=O)O)c(CCNC(C)=O)c2c1	-0.56
Cc1cc(O)c2c(=O)c(-c3csc(C)n3)c(C(F)(F)F)oc2c1	0.21
O=C(CN(Cc1ccccc1)S(=O)(=O)c1ccc(Cl)cc1)N1CCOCC1	1.55
CN(c1ccccc1)S(C)(=O)=O	0.82
O=C(CSc1nc2ccccc2c(=O)n1CCCN1CCCCC1)Nc1ccccc1Cl	-0.04
COCCN1C(=O)C(=O)/C(=C(/O)c2ccccc2)C1c1cccc(F)c1 (stereo unspecified)	-0.13
CC(C)(C)c1ccc(C(=O)NCc2ccccn2)cc1	-0.93
CCOc1ccc(/C(O)=C2\C(=O)C(=O)N(c3ccccn3)C2c2ccc(Br)cc2)c(C)c1 (stereo unspecified)	-0.79
O=C(O)c1cccc(NC(=O)c2ccc(N3C(=O)c4ccc([N+](=O)[O-])cc4C3=O)cc2)c1	0.39
Clc1ccccc1CSc1nc(NCc2ccco2)c2ccccc2n1	0.9
CCCCOC(=O)c1c(C)oc2c1cc(NS(=O)(=O)c1ccc(Cl)cc1)c1ccccc12	2.16
Cc1cc2cc(CNC(=O)Cc3ccc([N+](=O)[O-])cc3)ccc2[nH]1	-0.09
CC1=C(C(=O)Nc2ccc(F)cc2)C(c2ccc(O)cc2)NC(=O)N1 (stereo unspecified)	0.29
COc1cccc(OCC(O)CN2CCN(c3ccccc3)CC2)c1 (stereo unspecified)	0.47
CCOC(=O)c1csc(NC(=O)c2cccc(C(F)(F)F)c2)n1	-0.02
CCN(CC)c1ccc(NC(=O)CCS(=O)(=O)c2cccc3nonc23)c(C)c1	-0.57
CN(c1ccccc1)C(C(=O)Nc1ccc2c(c1)OCCO2)c1ccccc1 (stereo unspecified)	1.07
COc1ccc(OCc2nc3ccccc3n2CCC(C)C)cc1	0.58
O=C(O)C(Cc1c[nH]c2ccccc12)NS(=O)(=O)c1ccc(Br)cc1 (stereo unspecified)	0.18
CCOC(=O)C1=C(C)NC2=C(C(=O)CC(c3ccc(OC)c(OC)c3)C2)C1c1ccc(Br)cc1 (stereo unspecified)	-0.07
O=C(NCCCN1CCOCC1)c1cc(-c2ccccc2)nc2ccccc12	-0.46
Cc1ccc(Oc2ccccc2)c(NC(=O)c2ccccc2)c1	-0.15
Cc1nc2ccc3nc(NC(=O)c4ccccc4[N+](=O)[O-])sc3c2s1	-0.86
COc1cc(C=Cc2ccc(O)c(OC)c2)ccc1O	-0.62
COc1ccc(OCC(O)Cn2c(=N)n(Cc3ccccc3)c3ccccc32)cc1 (stereo unspecified)	-0.47
COc1ccc(NS(=O)(=O)c2ccc(C)cc2)cc1[N+](=O)[O-]	0.16
Cc1ccc(NC(=O)C(c2ccccc2)c2ccccc2)cc1	0
COc1cc(OC)c(NC(=O)c2sc3ncnc(N4CCN(c5ccccc5OC)CC4)c3c2C)cc1Cl	-1.64
COc1ccc(CNC(=O)CCc2nc3ccccc3n(Cc3ccc(C)cc3)c2=O)cc1	0.12
O=C1c2cccc([N+](=O)[O-])c2C(=O)N1C1C(=O)N(c2cccc(C(F)(F)F)c2)C1c1ccc(F)cc1 (stereo unspecified)	-0.1
CCOC(=O)C1=C(C)Nc2nc(-c3cc(OC)cc(OC)c3)nn2C1c1ccc(OC)cc1 (stereo unspecified)	-0.66
COc1ccc(NC(=O)CSc2nc3ccccc3nc2Cc2cccc([N+](=O)[O-])c2)cc1Cl	0.14
COc1ccc(Cl)cc1NC(=O)C(C)N(c1ccccc1)S(C)(=O)=O (stereo unspecified)	-0.87

6 of the compounds above, bar-delimited:
smiles | Measles inh
Cc1nc2ccc3nc(NC(=O)c4ccccc4[N+](=O)[O-])sc3c2s1 | -0.86
COc1cc(C=Cc2ccc(O)c(OC)c2)ccc1O | -0.62
COc1ccc(OCC(O)Cn2c(=N)n(Cc3ccccc3)c3ccccc32)cc1 (stereo unspecified) | -0.47
COc1ccc(NS(=O)(=O)c2ccc(C)cc2)cc1[N+](=O)[O-] | 0.16
Cc1ccc(NC(=O)C(c2ccccc2)c2ccccc2)cc1 | 0
COc1cc(OC)c(NC(=O)c2sc3ncnc(N4CCN(c5ccccc5OC)CC4)c3c2C)cc1Cl | -1.64

(continued)
SMILES	Measles inh
CCOC(=O)Cc1c(C)nc2cc(-c3ccc(C(C)(C)C)cc3)[nH]n2c1=O	1.22
Cc1ccc(NC(=O)CN2CCN(C)CC2)cc1Br	1.2
O=C1C2C(C(=O)N1c1cccc(Cl)c1)C1C=CC2C12CC2 (stereo unspecified)	-0.34
O=C(NCc1ccco1)C1CCCN(c2nc3ccccc3o2)C1 (stereo unspecified)	0.37
COc1ccc(Cn2c(SCC(=O)c3ccccc3)nc3ccc(N4CCOCC4)cc3c2=O)cc1	-0.8
Nc1c(NCCCN2CCOCC2)c2ccccc2oc1=O	1.48
CCOC(=O)c1c(NC(=O)c2cc(C)on2)sc(C)c1C	0.18
CC(C)COc1ccc(C(=O)OCCN2CCOCC2)cc1	-0.13
O=C(CSc1nc2ccccc2c(=O)n1-c1ccc2c(c1)OCO2)c1ccc(Cl)cc1	0.23

Not all compounds are listed; count on the stated rates, not on these rows.
